Source: PubChem BioAssay
KCNQ2 inh = KCNQ2 potassium channel inhibitors, primary screen, cell-based, CHO-K1, FluxOR thallium flux, B-score (AID 2156). 20 min; hits give low values; only compounds with negative scores are shown here; some inactives read as strong as hits. B-score at 10 µM. 1.1% of 310,000 active;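 active = fluorescence ratio B-score at most minus 3 library SDs, with starting brightness B-score within 2 library SDs, cut at about -5.5 in these data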
Target sequence (O88943 whole entry, looked up): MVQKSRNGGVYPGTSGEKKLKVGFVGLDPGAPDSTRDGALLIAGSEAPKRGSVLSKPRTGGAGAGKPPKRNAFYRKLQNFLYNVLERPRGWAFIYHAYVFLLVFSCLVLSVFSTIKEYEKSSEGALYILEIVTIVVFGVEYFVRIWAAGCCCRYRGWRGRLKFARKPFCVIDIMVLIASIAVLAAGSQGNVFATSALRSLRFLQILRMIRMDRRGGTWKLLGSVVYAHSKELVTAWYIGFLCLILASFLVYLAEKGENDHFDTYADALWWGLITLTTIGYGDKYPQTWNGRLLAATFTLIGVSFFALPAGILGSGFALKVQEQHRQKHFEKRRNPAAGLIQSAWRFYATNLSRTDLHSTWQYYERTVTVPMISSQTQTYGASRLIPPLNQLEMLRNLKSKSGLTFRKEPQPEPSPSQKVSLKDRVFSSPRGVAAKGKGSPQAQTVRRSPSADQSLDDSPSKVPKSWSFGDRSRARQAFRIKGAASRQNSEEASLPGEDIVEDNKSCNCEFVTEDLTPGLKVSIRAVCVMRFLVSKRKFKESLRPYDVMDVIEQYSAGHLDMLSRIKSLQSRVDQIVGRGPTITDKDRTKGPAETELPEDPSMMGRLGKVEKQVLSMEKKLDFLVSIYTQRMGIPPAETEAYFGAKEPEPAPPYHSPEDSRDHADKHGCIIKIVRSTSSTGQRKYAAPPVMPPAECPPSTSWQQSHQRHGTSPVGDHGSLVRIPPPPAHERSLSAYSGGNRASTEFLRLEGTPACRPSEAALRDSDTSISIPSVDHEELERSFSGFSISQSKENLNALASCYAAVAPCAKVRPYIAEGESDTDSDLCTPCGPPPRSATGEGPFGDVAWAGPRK
KCNQ2 inh baseline = recorded beside KCNQ2 inh, whose call it bears; B-score; measured here: initial fluorescence intensity artifact check;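 brightness before thallium and not channel activity; 0 = typical well and far values either way flag optical interference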
Active calls of the source: *; i = inactive. The list is partial; the hit share may differ from the screen's.

SMILES	KCNQ2 inh	KCNQ2 inh baseline
CCCCC(CCC(=O)Nc1cc([N+](=O)[O-])ccc1O)C(=O)O (configuration not stated)	i	0.79
c1ccc(-n2ncc3c(NCc4ccccn4)ncnc32)cc1	i	0.88
Cc1cc(SCC(=O)N/N=C/c2ccc(O)cc2O)nc2ccccc12	i	0.02
CCOc1ccc(-c2nnc(-c3ccccc3)n2-c2ccccc2)cc1	i	0.21
Cc1ccc(C)c(NC(CC(=O)c2ccccc2)C(=O)OCC(=O)c2cccs2)c1 (configuration not stated)	i	0.06
Cc1cc(C)c(OCC(=O)Nc2ccccc2N2CCOCC2)c(C)c1	-9.45*	-1.79*
CCOC(=O)c1csc(NNC=O)n1	i	0.07
COc1ccc(/C=C/C(=O)NC(=S)NNC(=O)c2cc(OC)c(OC)c(OC)c2)cc1	i	-1.09
CCN1CCc2nc(NC(=O)c3ccccc3)sc2C1	i	0.46
O=c1[nH]cnc2sc3c(c12)CCCCC3	i	0.98
COc1nccc(C(F)(F)F)c1C(=O)NC(=O)Nc1c(C)cccc1C	i	0.75
O=C1CCCC/C1=C/Nc1ccc(S(=O)(=O)Nc2ncccn2)cc1	i	0.95
O=C(CCCC(=O)N1CCCc2ccccc21)N1CCCc2ccccc21	i	0.01
Cn1c(=O)c2cnc(-c3ccc(C(F)(F)F)cc3)nc2n(C)c1=O	i	-0.68
O=C(Nc1ccc(NC(=O)c2ccco2)nc1)c1cccnc1	i	-0.99
CC(C)N1C(=O)CCC1C(=O)N1CCN(c2ccc(F)cc2)CC1 (configuration not stated)	i	-0.15
O=C(/C=C/c1ccc2c(c1)OCCO2)N1CCN(c2ccc(F)cc2)CC1	i	-1.06
CCCC(=O)Nc1nc2ccc(OC)cc2s1	i	-1.49
O=C(CCSc1ccccc1)NCCSCc1ccccc1	i	-0.02
Cc1ccc(C(=O)c2cc([N+](=O)[O-])ccc2N2CC(C)OC(C)C2)cc1 (configuration not stated)	i	0.16

Two of the compounds above, as comma-separated lines.
Structure,KCNQ2 inh,KCNQ2 inh baseline
Cc1ccc(C)c(NC(CC(=O)c2ccccc2)C(=O)OCC(=O)c2cccs2)c1 (configuration not stated),i,0.06
O=c1[nH]cnc2sc3c(c12)CCCCC3,i,0.98

Continued.
SMILES	KCNQ2 inh	KCNQ2 inh baseline
O=C(Nc1cc(Cl)ccc1O)C1CCCO1 (configuration not stated)	i	-0.1
O=C(Cn1nnc2ccccc21)c1ccc(Cl)cc1	i	-0.17
COc1ccnc(CSC(N)=Nc2ccccc2C(F)(F)F)c1	i	1.5
CC(C)C1Oc2ccccc2N(CC(=O)NCCCN2C(C)CCCC2C)C1=O (configuration not stated)	i	1.7
CC(=O)C1=C(O)C(=O)N(Cc2ccccc2)C1c1ccc(F)cc1 (configuration not stated)	i	1.21
CN(C)CCn1c2ccccc2c2nc3ccc([N+](=O)[O-])cc3cc21	i	-0.44
O=C(OCc1cc2ccccc2[nH]c1=O)c1ccccc1	i	0.73
O=C(CCCCCN1C(=O)CCC1=O)Nc1ccc2c(c1)OCO2	i	0.59
CCc1sc(C(=O)N2CCN(c3ccc(F)cc3)CC2)cc1C	i	-2.5
CC1(C)Oc2ccc(C(=O)NNC(=O)Nc3ccccc3)cc2NC1=O	i	-0.79
Cc1ccc(C(=O)NC(C)C2CC3CCC2C3)c(C)c1 (configuration not stated)	-7.72*	-1.1*
O=C(N/N=C/c1ccc(OC(=O)c2cccc(Br)c2)cc1)c1cccnc1	i	0.83
S=C1NC[C@H](CC2CCCCC2)N1CCc1cccc2ccccc12	i	0.16
O=C(CNc1ccc2ccccc2c1)N/N=C/c1ccc([N+](=O)[O-])o1	i	-2.01
COc1ccc(N2CCN(c3oc(-c4ccco4)nc3C#N)CC2)cc1	i	0.44
COc1ccc2c(CC(=O)OCC(=O)N3CCc4ccccc43)coc2c1	i	-1.84
COc1ccc(-c2cc(C(=O)N3CC(C)CC(C)C3)c3ccccc3n2)cc1OC (configuration not stated)	-10.6*	-0.31*
Cc1ccc(N=C2NC(=O)CC(C(=O)Nc3ccc4c(c3)OCO4)S2)cc1 (configuration not stated)	i	-0.06
CCOc1ccccc1NC(=O)CSc1nnc(NC(=O)c2ccco2)s1	i	-1.3
COc1ccc(NC(=O)CSCc2ccccc2C)cc1	i	0.12
CCN(CC(=O)Nc1ccc(NC(C)=O)cc1)C(=O)/C=C/c1cccs1	i	-0.15
COc1ccc(OC)c(-c2csc(NC(=O)Cc3cc(OC)c(OC)c(OC)c3)n2)c1	i	0.08
CN(/N=C/c1ccco1)C1=NS(=O)(=O)c2ccccc21	i	0.18
Cc1ccccc1OCC(=O)Nc1sc2c(c1C#N)CCC2	i	-0.79
O=C(CN1CCCCC1)Nc1cccc(Br)c1	i	0.16
COc1cc(OC)cc(C(=O)NCc2ccc3c(c2)cc(C)n3C)c1	i	0.56
COc1ccc(OCCn2c(=N)n(CCO)c3ccccc32)cc1	i	1.27
C=C(CC)C(=O)c1ccc(OCC(=O)O)c(Cl)c1Cl	i	-0.95
CC1(C)CC(=O)c2sc(NS(=O)(=O)c3ccc(Br)cc3)nc2C1	i	-0.48
O=C(Nc1ccc(Cl)cc1Cl)NC1CCCC1	i	-1.23
N#Cc1nc(COc2ccccc2Cl)oc1N1CCCC1	i	-2.5
O=C1COc2ccc(C(=O)CCl)cc2N1	i	-0.63
COCCn1c(SCC(=O)NCc2cccs2)nnc1-c1ccc(OC)cc1	i	1.32
CC(C)=CC(=O)OCc1cc([N+](=O)[O-])cc2c1OCOC2	i	-0.11
CN(CC(=O)Nc1ccc(S(N)(=O)=O)cc1)C1CCCCC1	i	0.24
COCCn1c(Cc2ccccc2)nnc1SCC(=O)Nc1ccccc1	i	-0.09
N=c1c2c(-c3ccccc3)c(-c3ccccc3)n(Cc3ccccc3)c2ncn1CCCn1ccnc1	i	-0.06
CCOC(=O)CC(NC(=O)Cn1nnc(-c2ccccc2Cl)n1)c1ccc(OC)cc1 (configuration not stated)	i	0.13
CCOc1ccc(OCC(=O)Nc2ccc(N3CCCCC3)cc2)cc1	i	-0.93
O=C(OCC(=O)N1CCN(C(=O)c2ccco2)CC1)c1ccccc1Cc1ccccc1	i	1.38
O=C(OCCOc1ccc(Br)cc1)c1ccc(Cl)c(S(=O)(=O)N2CCOCC2)c1	i	-0.23
CCCCc1cc(=O)oc2cc(C)cc(OCC(=O)NCCN3CCOCC3)c12	i	0.15
Cc1ccccc1NC(=O)Nc1ccccn1	i	0.83
O=C(CCCn1c(=O)c2sccc2n(CC(=O)NCC2CCCO2)c1=O)NCc1ccco1 (configuration not stated)	i	-0.43
Cc1cc2ccc(C)c(C)c2nc1SCC#N	i	0.57
CC1(c2ccc3noc(-c4ccc(Cl)cc4)c3c2)OCCO1	i	2.17
CCCCc1nnc(NC(=O)CSc2nc(N)cc(=O)[nH]2)s1	i	-2.16
CN(c1ccccc1)S(=O)(=O)c1ccc(Cl)c(C(=O)Nc2ccc(N3CCOCC3)cc2)c1	i	-0.44
O=C(CN1C(=O)NC2(CCCc3ccccc32)C1=O)N1CCN(C(=O)c2ccco2)CC1 (configuration not stated)	i	1.22
O=C(O)CSCC(=O)NCc1csc2ccc(Cl)cc12	i	1.36
O=C(N/N=C/c1cccc(Br)c1)C1CC(=O)N(c2ccccc2)C1 (configuration not stated)	i	1.62
COc1cc(S(=O)(=O)NC2CCCC2)ccc1-n1cnnn1	i	1.37
Cc1ccc(S(=O)(=O)/N=C/N(C)C)cc1	i	-0.34
COc1ccc(/C=N\NC(=O)COc2ccccc2Cl)cc1Cn1nc(C)cc1C	i	-0.12
COc1cc(NC(=O)COC(=O)CNC(=O)c2ccc(C)cc2)c(C)cc1[N+](=O)[O-]	i	1.8
Cc1ccc(S(=O)(=O)N[C@@H](C)C(=O)N2CCC(C(=O)N[C@@H](Cc3ccccc3)C(=O)O)CC2)cc1	i	-0.4
CCc1cc2c(CN(C)Cc3ccccc3F)cc(=O)oc2cc1O	i	0.67
CNc1nc(C(=O)O)nc(N2CCOCC2)n1	i	-1.07
Cc1ccc(S(=O)(=O)N2CCN(CC(=O)Nc3ccc4c(c3)CCC4)CC2)cc1C	i	0.07
Cc1ccc(S(=O)(=O)Nc2ccccc2C(=O)NCC2CCCO2)cc1 (configuration not stated)	i	-0.8
Later entries.
SMILES	KCNQ2 inh	KCNQ2 inh baseline
O=C(c1ccco1)N1CCN(Cc2cc(=O)c(OCc3ccccc3)co2)CC1	i	-1.03
COc1ccc([C@H]2[C@H](C(=O)OC(C)(C)C)N3N=Cc4ccccc4C3C23C(=O)c2ccccc2C3=O)cc1OC (some centres not stated)	i	0.65
CCC(=O)Oc1ccc(C(=O)Nc2ccc3c(c2)C(=O)N(C2CCCCC2)C3=O)cc1	i	0.25
O=C(Cc1ccc(Br)cc1)OCC(=O)c1ccc2c(c1)OCCO2	i	0.72
Cn1nc(C(C)(C)C)cc1C(=O)Sc1cccc(Br)c1	i	-0.88
CCN(CC)C(=O)c1ccc2c(c1)N(Cc1ccccc1)C(=O)CS2=O (configuration not stated)	i	0.08
O=C(CCc1ccc(S(=O)(=O)NC2CCCCC2)cc1)NCc1ccc(Cl)cc1	i	-2.45
CCOC(=O)C1=C(C)N(CC(C)C)C(=O)/C1=C\c1cccs1	i	0.54
Cc1noc(C)c1C(=O)NCc1ccccc1F	i	-1.3
O=C(OCCCN=C1NS(=O)(=O)c2ccccc21)c1ccc(F)cc1	i	0.34
CC1(C)S[C@@H]2[C@H](NC(=O)COc3ccccc3)C(=O)N2C1C(=O)OCC1CCCCC1 (some centres not stated)	i	-0.1
COc1cc(C(=O)Nc2ccc(N(C)C)cc2)cc(OC)c1OC	i	-0.11
CCc1ccc(C(=O)Nc2ccc(S(=O)(=O)Nc3nc(C)cc(C)n3)cc2)o1	i	-1.38
O=C(OCN1C(=O)c2ccccc2C1=O)c1ccccc1	i	-1.41
COCC(C)n1c(C)cc(C(=O)CSc2cc(C)c3ccccc3n2)c1C (configuration not stated)	i	-0.3
CC(Nc1cc(N2CCN(C(=O)C(C)(C)C)CC2)ccc1[N+](=O)[O-])c1ccccc1 (configuration not stated)	i	0.77
CC(C)(C#N)NC(=O)C(=O)c1c(-c2ccccc2)cc2ccccn12	i	-0.03
CC1Cc2ccccc2N1CC(=O)Nc1ccc2c(c1)OCO2 (configuration not stated)	i	2.17
C=CCC1CCCC(=O)N2CC[C@H](O)C12 (some centres not stated)	i	2.42
CC1(c2ccc(OC(F)F)cc2)NC(=O)N(CC(=O)c2ccc3c(c2)OCO3)C1=O (configuration not stated)	i	-0.16
Cc1ccc(-n2c([O-])nc(-[n+]3ccccc3)c2C=O)cc1	i	2.1
CCOC(=O)CCCNC(=O)CCCNC(=O)C(c1ccccc1)c1ccccc1	i	0.17
N#C/C(=C\c1ccc(OCc2ccccc2)cc1)C(N)=O	i	-0.8
COc1cc(CN2CCN(Cc3ccc(C)cc3)C(CCO)C2)cc(OC)c1O (configuration not stated)	i	-0.76
CCOC(=O)c1nc(-c2ccc(OC)c(OC)c2)cnc1C#N	i	3.13
Cc1cc(Cl)ccc1OC(C)C(=O)Nc1ccc(C(=O)Nc2ccccc2C(=O)O)cc1 (configuration not stated)	i	-1.83
COC(=O)CN1C(=S)N(c2ccc(Cl)cc2)C(=O)C1CC(=O)Nc1ccccc1 (configuration not stated)	i	0.98
O=C1N(Cc2ccc(F)cc2)CCN1c1ccc(F)cc1	i	-0.02
N#Cc1cccc(NC(=O)COC(=O)CCc2nc3ccccc3c(=O)[nH]2)c1	i	0.01
c1ccc(Nc2cccc3c(Nc4ccccc4)cccc23)cc1	i	0.82
CC(C)N(C(=O)COC(=O)c1cccc(N(C)C)c1)c1ccccc1	i	-1.28
CC1CCN(C(=O)c2ccccc2SCC(=O)NCC2CCCCC2)CC1	-6.01*	1.04*
COC(c1ccccc1)c1nnc(CCC(=O)N(C)CCc2ccccc2)o1 (configuration not stated)	i	-1.2
Cc1ccc(S(=O)(=O)N(Cc2cc3cc4c(cc3[nH]c2=O)OCCO4)CC2CCCO2)cc1 (configuration not stated)	i	-0.13
Cc1nc2ccccc2n1CSc1ccccc1	i	1.04
CC(Cc1n[nH]c(=S)o1)c1ccccc1 (configuration not stated)	i	-1.37
Cc1ccc(-c2ccc(/C=N/c3ncn[nH]3)o2)cc1Cl	i	0.06
Cc1noc(C)c1C(=O)N1CCN(S(=O)(=O)c2cccc(Cl)c2Cl)CC1	i	-0.45
COc1cc(CNC2CCCC2)cc(Cl)c1OCc1ccccc1Cl	i	0.01
CCCn1nc(NC(=O)c2cccs2)c2cc3ccccc3nc21	i	-0.43

By substructure, the compounds so far with a Cl atom
SMILES	KCNQ2 inh	KCNQ2 inh baseline
O=C(Nc1cc(Cl)ccc1O)C1CCCO1 (configuration not stated)	i	-0.1
O=C(Cn1nnc2ccccc21)c1ccc(Cl)cc1	i	-0.17
C=C(CC)C(=O)c1ccc(OCC(=O)O)c(Cl)c1Cl	i	-0.95
O=C(Nc1ccc(Cl)cc1Cl)NC1CCCC1	i	-1.23
N#Cc1nc(COc2ccccc2Cl)oc1N1CCCC1	i	-2.5
O=C1COc2ccc(C(=O)CCl)cc2N1	i	-0.63
CCOC(=O)CC(NC(=O)Cn1nnc(-c2ccccc2Cl)n1)c1ccc(OC)cc1 (configuration not stated)	i	0.13
O=C(OCCOc1ccc(Br)cc1)c1ccc(Cl)c(S(=O)(=O)N2CCOCC2)c1	i	-0.23
CC1(c2ccc3noc(-c4ccc(Cl)cc4)c3c2)OCCO1	i	2.17
CN(c1ccccc1)S(=O)(=O)c1ccc(Cl)c(C(=O)Nc2ccc(N3CCOCC3)cc2)c1	i	-0.44
O=C(O)CSCC(=O)NCc1csc2ccc(Cl)cc12	i	1.36
COc1ccc(/C=N\NC(=O)COc2ccccc2Cl)cc1Cn1nc(C)cc1C	i	-0.12
O=C(CCc1ccc(S(=O)(=O)NC2CCCCC2)cc1)NCc1ccc(Cl)cc1	i	-2.45
Cc1cc(Cl)ccc1OC(C)C(=O)Nc1ccc(C(=O)Nc2ccccc2C(=O)O)cc1 (configuration not stated)	i	-1.83
COC(=O)CN1C(=S)N(c2ccc(Cl)cc2)C(=O)C1CC(=O)Nc1ccccc1 (configuration not stated)	i	0.98
Cc1ccc(-c2ccc(/C=N/c3ncn[nH]3)o2)cc1Cl	i	0.06
Cc1noc(C)c1C(=O)N1CCN(S(=O)(=O)c2cccc(Cl)c2Cl)CC1	i	-0.45
COc1cc(CNC2CCCC2)cc(Cl)c1OCc1ccccc1Cl	i	0.01
